TRPML1 blocker = qHTS for Inhibitors of the Human Mucolipin Transient Receptor Potential 1 (TRPML1). 0.02% of 390,000 active. TRPML1-inducible cells, Ca2+ dye fluorescence, FDSS; active compounds read low; inhibition of EC80 agonist-evoked calcium signal. AID 624415, 2012. activity change, negative = inhibition, % (test concentration not listed). Mucolipin-1 (Homo sapiens), Q9GZU1; in the data active means activity change below about -50%; inconclusive means about -30% to -50%; inactive means above about -30%;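 further: stimulus is agonist 54-4 at its EC80 concentration; on the % scale 0 is the no-effect control and ±100 the full control effect; compound concentration not given in the record; the text of the record puts the active cut at -80%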
Target sequence (Q9GZU1 whole entry, looked up): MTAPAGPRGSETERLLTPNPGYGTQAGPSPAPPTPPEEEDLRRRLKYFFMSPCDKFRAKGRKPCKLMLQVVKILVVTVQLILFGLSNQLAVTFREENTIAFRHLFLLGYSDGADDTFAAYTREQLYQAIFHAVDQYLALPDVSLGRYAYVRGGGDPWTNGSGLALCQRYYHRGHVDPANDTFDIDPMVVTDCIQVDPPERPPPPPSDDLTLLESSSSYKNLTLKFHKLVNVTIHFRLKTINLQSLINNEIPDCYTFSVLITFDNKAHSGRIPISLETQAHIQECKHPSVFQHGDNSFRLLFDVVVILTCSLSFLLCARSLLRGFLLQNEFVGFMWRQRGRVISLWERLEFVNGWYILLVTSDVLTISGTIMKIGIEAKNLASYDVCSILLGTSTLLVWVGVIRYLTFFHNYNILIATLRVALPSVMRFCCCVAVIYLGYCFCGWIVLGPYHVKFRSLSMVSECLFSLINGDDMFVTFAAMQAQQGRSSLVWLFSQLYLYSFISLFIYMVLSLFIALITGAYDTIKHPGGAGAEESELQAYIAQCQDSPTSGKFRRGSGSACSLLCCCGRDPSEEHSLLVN
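Calcium fluorescence in TRPML1-DL cells induced overnight with Tet: a 110 s read after compound pin addition, then a 110 s antagonist read after challenge with 54-4 at 4 uM final (EC80).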
D2 potentiator = Beta-Arrestin HTS for Positive Allosteric Modulators of the Human D2 Dopamine Receptor: Potentiators; D(2) dopamine receptor (Homo sapiens), P14416; AID 624464, 2012; DiscoveRx D2 beta-arrestin cells, luminescence, 90 min; 100% = 57 uM dopamine signal; 0.23% of 360,000 active; potentiation, % (test concentration not listed); active = potentiation of 50% or more; inconclusive = 30% to 50%; inactive = 30% or less;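 further: compound concentration not given in the record; tested on top of an EC20 dose of dopamine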
Target sequence (P14416 whole entry, looked up): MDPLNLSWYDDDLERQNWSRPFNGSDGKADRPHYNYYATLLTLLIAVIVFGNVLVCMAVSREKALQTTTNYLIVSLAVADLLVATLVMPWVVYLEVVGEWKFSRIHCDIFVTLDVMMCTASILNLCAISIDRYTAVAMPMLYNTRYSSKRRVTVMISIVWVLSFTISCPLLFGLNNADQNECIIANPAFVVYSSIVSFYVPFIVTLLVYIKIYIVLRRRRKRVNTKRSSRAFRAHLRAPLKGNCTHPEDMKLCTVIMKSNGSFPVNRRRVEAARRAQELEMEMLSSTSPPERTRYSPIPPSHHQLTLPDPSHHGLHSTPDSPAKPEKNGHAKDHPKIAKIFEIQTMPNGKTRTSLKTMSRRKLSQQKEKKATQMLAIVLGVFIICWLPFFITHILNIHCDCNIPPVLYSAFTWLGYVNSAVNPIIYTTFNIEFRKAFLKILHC
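D2 cells co-treated with compound plus 50 nM dopamine (EC20) for 90 min at 37 deg C to detect potentiation. Beta-arrestin recruitment was read as enzyme-fragment luminescence after 1 h at ambient temperature. Full response was set by 57 uM dopamine.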
TRPML1 ag = qHTS for Agonists of the Human Mucolipin Transient Receptor Potential 1 (TRPML1). TRPML1-expressing cells, Ca2+ dye fluorescence, FDSS; host cell line not named in the record; reference of the full effect not given here. 0.12% of 410,000 active. Mucolipin-1 (Homo sapiens), Q9GZU1. activation, % (no concentration beside the values); in the data active = activation above about 50%; inconclusive = about 30% to 50%; inactive = below about 30%; further: 0% is about no effect; the text of the record puts the active cut at 80%
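Kinetic FDSS Ca2+ read in Tet-induced TRPML1-DL cells (ABD Ca8 dye plus quencher, 45-90 min RT loading): baseline, then compound, then 110 s agonist window; EC80 agonist 54-4 at 4uM final added afterwards for a 110 s antagonist window.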
D2 ag = Beta-Arrestin HTS for Positive Allosteric Modulators of the Human D2 Dopamine Receptor: Agonists; 0.084% of 360,000 active; activation, % (no concentration beside the values); AID 624465, 2012; DiscoveRx PathHunter D2 beta-arrestin, luminescence, 90 min; 100% = 57 uM dopamine signal; in the data active = activation above about 40%; inconclusive = about 15% to 40%; inactive = below about 15%; further: compound concentration not given in the record; the text of the record calls up to 30% inactive
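DiscoveRx PathHunter D2 beta-arrestin cells (2,100/well) attached overnight, then compound-stimulated 90 min at 37 C in HBSS/10 mM HEPES/0.1% Tween-20 buffer; beta-galactosidase complementation read by luminescence after 1 h at ambient temperature. Dopamine 57 uM final (EC100) as control.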
Six1-Eya2 inh = qHTS Assay for Inhibitors of the Six1/Eya2 Interaction; Homeobox protein SIX1 (Homo sapiens) + Protein phosphatase EYA2 (Homo sapiens), …; AlphaScreen GST-Six1/His-Eya2 binding, biochemical; active compounds read low; control for the full effect not named in the record; activity change, % (no concentration beside the values); 0.56% of 360,000 active; in the data active = activity change below about -65%; inconclusive = about -30% to -65%; inactive = above about -30%; further: on the % scale 0 is the no-effect control and ±100 the full control effect
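Compounds are tested against tagged Six1 and Eya2 proteins bridged by glutathione donor and nickel acceptor beads; after a one-hour incubation at 37 °C without light, AlphaScreen emission is recorded.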
PINK1 modulator = A Quantitative High throughput Screen to Identify Chemical Modulators of PINK1 Expression | PINK1 immunofluorescence, high-content cytometry, 24 h | Potency, µM (highest dose often 76.6 µM), without a hit: at the top dose activation (PINK1 increase), actives largely listed as activators | 0.2% of 410,000 active; active = well fitted activation curve with a large enough effect; inconclusive = small, poorly fitted or top-dose-only effect; inactive = flat fitted curve, though single readings scatter; cell line not stated here;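 further: potency means the concentration at half of the fitted maximal effect; % of control where 0% means no effect; nearly all actives have a fitted effect of over 65% in size; a mitochondrial uncoupler was the plate control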
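Stable cell line, 250 cells/well, 12 h attachment; compounds pinned at 5 concentrations, 24 h; CCCP control. Fixed with nuclear dye, primary antibodies 12 h at 10 degrees C, secondary plus cell stain; laser-scanning cytometer read.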
Starred values were filed as active, the others as inactive; ? = inconclusive; nt = not tested or not shown; [ ] = dose if it differs, or a comment.

Every second line gives: TRPML1 blocker	D2 potentiator	D2 ag	Six1-Eya2 inh	PINK1 modulator	TRPML1 ag
> CCOc1ccc2oc(C(=O)NNC(=O)c3ccccc3O)c(C)c2c1
  12	1	-6.6	-13	8.3%	0.1
> COc1ccc(Cn2ccnc2SCC(=O)Nc2cccc(NC(C)=O)c2)cc1
  -15	-6	-0.8	-13	0.0%	0.3
> CCOC(=O)C1(CCCc2ccccc2)CCN(C(=O)CCn2cnnn2)CC1
  -13	-7	-2.6	-3	1.5%	-0.6
> NC(=O)C1Cc2ccccc2CN1S(=O)(=O)c1ccc(Cl)s1 (stereo unspecified)
  -1	4	-3.3	0	-0.8%	-0.4
> COc1ccc2[nH]c(C(=O)NCc3ccc4c(c3)OCO4)cc2c1
  -6	2	-1.3	-9	-2.0%	0.4
> COc1ccc(C(CC(=O)O)NC(=O)COc2ccc(C)cc2)cc1OC (stereo unspecified)
  10	-9	0.4	4	0.5%	0.8
> N#Cc1ccc(C(=O)N2CCN(S(=O)(=O)c3ccc(Br)s3)CC2)cc1
  11	-2	-1.7	-1	2.3%	1.1
> COc1ccc(-n2c(SCC(=O)Nc3ccc(C)cc3)nc(O)c(Cc3ccccc3)c2=O)cc1
  8	0	-3.8	-11	0.6%	-0.7
> CN(Cc1ccccc1)C(=O)COC(=O)COc1ccc(Cl)cc1
  29	1	-0.5	5	0.0%	2.0
> C[C@@H]1CCCCCCCCC(=O)OCCN[C@H](C)CCCCCCCCC(=O)OCCN[C@H](C)CCCCCCCCC(=O)OCCN1
  2	-13	0.3	-7	0.6%	-0.6
> COc1ccc(/C(O)=C/c2nc3ccc(C(=O)NCCc4cccc(C)c4)cc3[nH]c2=O)cc1OC
  18	-3	3.5	5	20%	14
> COc1ccc(/C=C/c2nnc(NC(=O)COc3ccccc3)s2)cc1
  -2	-6	-1.5	1	0.3%	0.0
> COc1ccc(-c2noc(CSc3nnc(-c4ccncc4)n3-c3ccc(C)cc3)n2)cc1OC
  -18	nt	nt	nt	-0.5%	-0.8
> Cc1cccc(C)c1NC(=O)C(c1cccc([N+](=O)[O-])c1)N(C)C(=O)c1ccccn1 (stereo unspecified)
  3	-4	-5.9	-1	1.9%	-0.7
> Cc1ccc(C)c(S(=O)(=O)N(C(=O)c2ccncc2)c2ccc(OC(=O)c3ccncc3)cc2)c1
  -18	-6	-6.2	-7	0.4%	-0.5
> CCOc1ccc(-c2nc(SCC(=O)Nc3cc(F)ccc3F)n3[nH]c(=O)cc3n2)cc1
  -15	nt	nt	nt	-0.6%	0.5
> CCCCCCC1CC(CC(=O)Nc2ccc([N+](=O)[O-])cc2)C(=O)O1 (stereo unspecified)
  7	-18	0.3	-7	3.9%	1.4
> Cc1ccc(NC(=O)N2CCC(C(=O)NCc3ccccc3)CC2)cc1
  -8	-12	-1.9	3	0.5%[38.3 µM]	0.3
> CCSC1=C(C#N)C(c2cccc(Br)c2)CC(=O)N1 (stereo unspecified)
  -4	-21	3.4	4	3.7%[38.3 µM]	0.3
> CCCn1c2ccccc2c2nnc(SC(CC)C(=O)Nc3cc(C)on3)nc21 (stereo unspecified)
  4	-23	-1.7	-19	2.1%	-0.5
> COc1ccccc1NC(=S)N(Cc1ccco1)Cc1cc2cccc(C)c2[nH]c1=O
  8	-2	-5.2	-8	1.5%	1.5
> COCCNC(=O)CCCCCn1c(=S)[nH]c2ccccc2c1=O
  -9	-12	-3.0	-4	nt	0.0
> CC(C(=O)NCCN1C(=O)S/C(=C\c2cccnc2)C1=O)N1C(=O)c2ccccc2C1=O (stereo unspecified)
  -10	0	-1.2	-2	-0.2%	0.9
> Cc1noc(C)c1S(=O)(=O)N1CCC(C(=O)NC2CCCc3ccccc32)CC1 (stereo unspecified)
  -2	-12	-2.6	-2	-0.4%	-0.8
> COc1ccc(S(=O)(=O)Nc2ccccc2OC)cc1NC(=O)CC1CC2CCC1C2 (stereo unspecified)
  41	-4	-0.5	-1	0.7%	0.4
> O=C(C(=O)N1CCN(Cc2ccc3c(c2)OCO3)CC1)c1c[nH]c2ccccc12
  -8	-31	-4.9	-8	3.3%	1.1
> CC(Oc1ccc(Cl)cc1Cl)C(=O)Nc1ccc(N2CCN(C)CC2)cc1 (stereo unspecified)
  -16	-40	-1.5	-11	-0.9%	0.1
> COc1ccccc1-n1nc(-c2ccccc2)c2cnc3cc(C(F)(F)F)ccc3c21
  3	nt	nt	nt	4.0%	1.0
> O=C(NC1CCCCC1)C1CCCN(c2nnnn2-c2ccccc2)C1 (stereo unspecified)
  -24	-5	-3.6	5	0.7%[38.3 µM]	1.3
> CCn1c(Cc2c(C)[nH]c3ccccc23)nnc1SCC(N)=O
  13	-5	0.0	5	nt	1.1
> COc1ccc(NC(C)=O)cc1NC(=O)C1(c2cccs2)CCOCC1
  -5	nt	nt	nt	-1.4%	-1.1
> CCN1c2ccccc2S(=O)(=O)c2ccccc21
  19	-2	-0.5	4	0.1%	-0.4
> O=C(C[n+]1ccccc1)c1ccc(NC(=O)c2ccccc2)cc1
  1	-3	-1.7	9	1.2%	-0.5
> Cc1ccc(CC(CC(=O)Nc2cccc(C(F)(F)F)c2)C(=O)O)cc1 (stereo unspecified)
  0	-2	-7.4	-8	0.8%	-0.4
> CC(=O)Oc1ccc2ccc(=O)oc2c1
  nt	-27	-8.5	4	0.3%	nt
> O=C(COc1ccccc1Cl)OCc1cc(=O)n2nc(C3CCCCC3)sc2n1
  -6	nt	nt	nt	-0.9%	0.4
> COc1ccccc1N1CCN(C(=O)COc2ccc(S(=O)(=O)NC(C)C)cc2)CC1
  -11	3	1.6	2	5.7%	-0.7
> CN(C(=O)c1ccccc1NC(=O)C(F)(F)F)c1ccccc1
  -1	-3	-2.8	1	?	0.3
> O=S(=O)(NCCSc1ccc(Cl)cc1)c1ccc2c(c1)OCCO2
  0	-26	-1.7	0	0.0%	1.1
> CC(OC(=O)c1ccc(-n2cnnn2)cc1)C(=O)Nc1ccccc1[N+](=O)[O-] (stereo unspecified)
  -8	23	2.2	-5	1.4%	-1.1
> CC1CCN(C(=O)Cn2cc([N+](=O)[O-])ccc2=O)c2ccccc2S1 (stereo unspecified)
  6	-3	2.1	-5	-3.4%	1.8
> Cc1nn(CCC(=O)NC(C)C)c(=O)c2nn(-c3ccccc3)c(C)c12
  5	nt	nt	nt	-1.0%	0.1
> Cc1ccc(C(=O)OCC(=O)Nc2ccc(C)c(S(=O)(=O)N3CCCCC3)c2)c(O)c1
  -9	-4	-0.7	-15	1.6%	-0.2
> CCCCN(C)CCNC(=O)c1cn(C)c(=O)c2c1c1ccccc1n2C
  31	-15	-0.5	6	-0.6%	-1.0
> O=S(=O)(c1cccc2nsnc12)N1CCOCC1
  10	-11	-0.6	-1	2.1%	-0.4
> COC(=O)CNC(=O)CSc1ccccn1
  26	-4	-2.4	4	1.1%	1.4
> COC(=O)c1ccc(COc2ccccc2/C=N/NC(=O)c2cccnc2)cc1
  3	-2	5.5	-11	2.6%	-0.8
> CCOC(=O)/C(C#N)=C/c1c(N2CCCCCC2)nc2ccccn2c1=O
  24	-10	-2.8	-16	2.3%	2.7
> COc1ccc(OCC(=O)Nc2ccc(-c3nc4cc(Cl)ccc4o3)cc2)cc1
  38	nt	nt	nt	-0.8%	1.5
> COc1ccc(CC(=O)Nc2cc(S(=O)(=O)N3CCOCC3)ccc2N2CCOCC2)cc1
  2	4	1.1	-9	2.7%	-0.4
> Cc1nonc1OCCNc1ccc([N+](=O)[O-])cc1[N+](=O)[O-]
  30	8	3.1	-15	-0.4%	5.2
> COc1ccc(Cl)cc1C(=O)OCC(=O)N1CCCC(C)C1 (stereo unspecified)
  5	1	-0.2	7	2.0%	-0.8
> O=C(CC[C@H]1O[C@@H](n2ccc(=O)[nH]c2=O)[C@H](O)[C@@H]1O)N[C@@H](Cc1ccccc1)C(=O)NCC1CCCO1 (stereo partly specified)
  nt	-4	-1.6	6	0.5%	-0.1
> Brc1ccc(-c2cnnc(N3CCCC3)n2)cc1
  -3	-9	-0.5	-15	-1.0%	2.4
> CSc1ccc(CCNC(=O)C2CCN(c3nnc(-n4cccc4)s3)CC2)cc1
  -9	-8	-2.4	4	1.1%	-0.2
> O=C(NCC(=O)N(Cc1ccccc1)C(C(=O)NCC1CCCO1)c1ccccc1)c1ccco1 (stereo unspecified)
  40	4	6.8	1	0.3%	0.3
> Cc1cc(C)cc(NC(=O)C(Sc2nnc(C)c(=O)[nH]2)c2ccccc2)c1 (stereo unspecified)
  -17	-10	-2.6	-10	0.0%	-0.4
> COc1ccc(-n2cc(-c3ccccc3)c3c(NCCCN4CCOCC4)ncnc32)cc1
  -3	-7	-9.2	-10	-0.5%	-0.7
> Cc1cc(C)c(C#N)c(SCC(=O)CC(=O)OC(C)C)n1
  -22	-13	-1.3	-15	4.2%	-0.1
> CN1CCN(c2ccc(CNC(=O)C3(C)Cc4c(-c5ccc(C(N)=O)cc5)ccnc4O3)cc2)CC1 (stereo unspecified)
  nt	-17	-4.4	-3	1.3%	0.2

6 entries picked at random from the list so far:
Every second line gives: TRPML1 blocker	D2 potentiator	D2 ag	Six1-Eya2 inh	PINK1 modulator	TRPML1 ag
> Cc1nonc1OCCNc1ccc([N+](=O)[O-])cc1[N+](=O)[O-]
  30	8	3.1	-15	-0.4%	5.2
> COC(=O)CNC(=O)CSc1ccccn1
  26	-4	-2.4	4	1.1%	1.4
> CN1CCN(c2ccc(CNC(=O)C3(C)Cc4c(-c5ccc(C(N)=O)cc5)ccnc4O3)cc2)CC1 (stereo unspecified)
  nt	-17	-4.4	-3	1.3%	0.2
> COC(=O)c1ccc(COc2ccccc2/C=N/NC(=O)c2cccnc2)cc1
  3	-2	5.5	-11	2.6%	-0.8
> Cc1cc(C)cc(NC(=O)C(Sc2nnc(C)c(=O)[nH]2)c2ccccc2)c1 (stereo unspecified)
  -17	-10	-2.6	-10	0.0%	-0.4
> O=C(NCC(=O)N(Cc1ccccc1)C(C(=O)NCC1CCCO1)c1ccccc1)c1ccco1 (stereo unspecified)
  40	4	6.8	1	0.3%	0.3

Screens as filed in PubChem.
